Mtb growth = M. tuberculosis H37Rv growth inhibitors, H37Rv strain (AID 1626); M. tuberculosis H37Rv growth inhibition; higher % means a stronger effect; one-dose inhibition, % at 10 µM; IC50 in µM for titrated hits; 220,000 tested, 0.95% active;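 active = confirmed in a dose series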;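 also: bacteria incubated seven days before Alamar blue readout; 0% = bacteria only wells and 100% = bacteria with antibiotic wells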
Arbovirus anti = blocks arbovirus infection; arbovirus infection cell-based antiviral screen; inhibition, % at 10 µM; 200,000 tested, 0.37% active; AID 1251;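 active = inhibition from about 30%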;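 also: bluetongue infection of BSR cells; cell survival read as ATP light after 72 h; 0% = infected wells without compound and 100% = uninfected wells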
RecA splice inh = inhibitors of M. tuberculosis RecA intein splicing. inhibition, %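 (about 9 µM by stock and volumes)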. 290,000 tested, 0.75% active. P9WHJ3. AID 2221. cell-free RecA intein splicing, fluorescence; in the data active = inhibition above about 30%;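 also: 0% = vehicle wells and 100% = reference inhibitor control wells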
Target sequence (P9WHJ3 whole entry, looked up, canonical isoform): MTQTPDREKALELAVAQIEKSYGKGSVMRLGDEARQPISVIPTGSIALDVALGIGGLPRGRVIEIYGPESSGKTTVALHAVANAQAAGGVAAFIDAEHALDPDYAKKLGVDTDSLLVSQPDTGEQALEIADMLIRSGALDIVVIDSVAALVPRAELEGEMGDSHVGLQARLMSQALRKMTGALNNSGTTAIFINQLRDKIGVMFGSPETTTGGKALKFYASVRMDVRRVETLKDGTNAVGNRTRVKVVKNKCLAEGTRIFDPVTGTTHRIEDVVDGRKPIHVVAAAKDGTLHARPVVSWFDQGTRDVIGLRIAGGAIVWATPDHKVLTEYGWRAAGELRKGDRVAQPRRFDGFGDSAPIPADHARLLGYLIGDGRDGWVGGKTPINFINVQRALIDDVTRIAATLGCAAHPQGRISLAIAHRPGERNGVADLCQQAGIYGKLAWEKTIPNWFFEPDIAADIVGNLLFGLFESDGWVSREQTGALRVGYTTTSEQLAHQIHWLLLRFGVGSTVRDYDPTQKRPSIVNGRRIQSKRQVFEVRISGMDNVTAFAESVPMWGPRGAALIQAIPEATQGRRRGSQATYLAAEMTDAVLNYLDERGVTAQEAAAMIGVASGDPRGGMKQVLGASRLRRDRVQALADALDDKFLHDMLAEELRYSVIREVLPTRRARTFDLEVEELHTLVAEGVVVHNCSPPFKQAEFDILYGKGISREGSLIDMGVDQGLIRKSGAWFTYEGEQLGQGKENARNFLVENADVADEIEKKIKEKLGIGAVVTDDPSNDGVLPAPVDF
Mtb betalactam = beta-lactam sensitization of Mtb H37Rv; M. tuberculosis H37Rv growth with meropenem, percent inhibition; hits of this screen are not shown here; inhibition, % at 25 µM; 330,000 tested, 0.27% active;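 active = about 74% or more and at least 40 points above the plate without the antibiotic, then above 30% in a dose series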;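 also: growth measured after seven days incubation then overnight dye step; 0% = bacteria only wells and 100% = bacteria with antibiotic; twin plates without the antibiotic show which effects depend on it; some results filed as inactive read as strong as hits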
YopH inh = YopH (Yersinia) phosphatase inhibition; fluorescence Ex485/Em525; inhibition, %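 (about 10 µM by stock and volumes)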; 140,000 tested, 0.16% active;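 active = inhibition of 50% or more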;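 also: controls were vehicle for no effect and minimum signal wells for full effect; inactives centre near -20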
Arbovirus anti repeat = recorded beside Arbovirus anti, whose call it bears; inhibition, %; measured here: 10K subset replicate screen; many hits read low in the repeat;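 first of two repeat runs on a subset; 0% = infected and 100% = uninfected wells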
An asterisk follows results filed as active; nt = no result given. The list is partial. The share of hits here may be higher or lower than overall.

SMILES	Mtb growth	Arbovirus anti	RecA splice inh	Mtb betalactam	YopH inh	others
Cc1cc(/C=C2\C(=N)N3N=CSC3=NC2=O)c(C)n1Cc1ccccc1	-0.8%	nt	-1.4	-4.8	nt
O=C(COC(=O)c1ccccn1)c1cccc(Br)c1	nt	nt	-3.0	-1.9	nt
Cc1ccc(Cl)cc1Nc1nc(N2CCOCC2)nc(N2CCOCC2)n1	nt	nt	0.0	54.2	nt
NC(=O)[C@H]1CC2(CC(c3cccc(NC(=O)CC(c4ccccc4)c4ccccc4)c3)=NO2)CN1C(=O)CC(c1ccccc1)c1ccccc1 (some centres not stated)	43.2%	nt	11.2	96.8	nt
NC(=O)c1cc(S(=O)(=O)NCCc2ccc(S(N)(=O)=O)cc2)cs1	nt	nt	-0.7	1.9	nt
CCOC(=O)COc1ccc2c(=O)c(-c3ccc(OC)c(OC)c3)c(C(=O)OCC)oc2c1	2.51µM*	nt	0.8	100.2	nt
Cn1cnc2c1c(=O)n(Cc1ccc(F)cc1Cl)c(=O)n2C	-1.7%	-5.5	-0.5	-5.2	-28.0
Cc1ccc(/C=C/C(=O)NCc2ccc3c(c2)OCO3)o1	-3.7%	-4.6	1.3	-6.2	-2.3
CN1C2CCC1CC(NS(=O)(=O)c1ccc(C#N)cc1)C2 (configuration not stated)	nt	nt	1.6	-0.1	nt
COc1ccc(NC(=O)c2cc(-c3ccccc3OC)on2)cc1	-0.2%	-18.1	-3.4	-4.6	-21.4
CCOC(=O)C1(Cc2cccc(OC)c2)CCCN(C(=O)CCc2cccnc2)C1 (configuration not stated)	4.5%	4.8	-2.0	-5.9	nt
CC(C)NC(=O)CCc1nnc(Cc2cccc(C(F)(F)F)c2)o1	0.4%	1.0	-0.5	-4.2	nt
CCSc1nnc(NC(=O)c2ccc3ccccc3n2)s1	0.628µM*	-48.2	2.0	90.0	2.8
C=CCn1c(=O)n2ncnc2c2c3c(sc21)CCCC3	nt	13.3	-1.7	-2.1	-20.7
COc1ccc(CC(C)Nc2cccc(F)c2)cc1 (configuration not stated)	nt	nt	2.6	3.6	nt
COc1cc(NC(=O)c2cccs2)ccc1NC(=O)c1ccco1	12.3%	-12.7	-2.4	17.3	-3.8
Cc1nn(C(C)(C)C)c(OC(=O)c2ccco2)c1Sc1ccccc1	8.7%	0.1	26.6	-9.3	14.8
O=C(Nc1cccc(-c2cnc3ccccc3n2)c1)c1cccc(NC(=O)c2ccco2)c1	4.4%	-5.5	-0.3	27.9	-21.9
COC(=O)[C@H](CCSC)NC(=O)Nc1cc(OC)cc(OC)c1	-4.0%	nt	-0.7	6.2	nt
CN(C)C(=O)NCc1ccc(S(N)(=O)=O)cc1	-3.4%	5.8	-1.6	-0.2	-1.1
O=C(CN(c1ccc2c(c1)OCCO2)S(=O)(=O)c1ccccc1)NCc1ccc(Cl)cc1	5.6%	-14.1	2.1	4.4	-17.8
COc1ccc2oc(C(=O)OCC(=O)/C(C#N)=C(\C)N)c(C)c2c1	-1.2%	4.4	-1.0	-1.5	nt
COc1ccccc1Nc1nn2c(=O)c3ccc(C(=O)NCc4cccnc4)cc3nc2s1	nt	nt	-3.8	4.7	nt
CCc1ccc(NC(=O)CSc2nnc(-c3cnccn3)n2Cc2ccco2)cc1	-3.5%	-5.9	-0.3	0.8	-57.8
COC(=O)c1cccc(NC(=O)CN2C(=O)c3ccccc3C2=O)c1	nt	nt	0.9	1.1	nt
C=C(C)C(=O)Oc1ccc(N2C(=O)CCC2=O)cc1	-3.4%	nt	-0.3	0.3	nt
CCS(=O)(=O)N1Cc2ccccc2CC1C(=O)Nc1ccc(NC(C)=O)cc1 (configuration not stated)	1.4%	2.0	0.7	-2.0	12.6
O=C(Cn1c(=O)c(=O)n(Cc2ccccc2)c2ccc(Cl)cc21)NCC1CCCO1 (configuration not stated)	5.5%	-3.5	-3.5	-5.2	nt
Cc1ccc2nc(NC(=O)c3cccc(-c4cc5ccccc5oc4=O)c3)sc2c1	-0.6%	-40.0	-1.1	-1.4	-11.0
CCCN1C(=O)C(NC(=O)c2ccncc2)(C(F)(F)F)C2=C1CC(C)(C)CC2=O (configuration not stated)	-4.3%	3.4	6.1	-5.2	-14.1
CC(=O)c1ccc(-n2ccc(=O)cc2)cc1	nt	nt	1.1	-5.7	nt
C[C@@H]1NC(=O)c2cc([N+](=O)[O-])cc(I)c2OCC[C@@H](C(N)=O)NC(=O)[C@H](CCCCN)NC1=O	-6.9%	-2.2	0.5	-12.3	-18.1
O=C(Nc1ccccc1-c1ccccc1)c1ccc(Br)o1	-5.7%	2.5	nt	4.8	-7.7
N#Cc1c(=O)c2nc(NCCCO)ncc2n2c(=O)c3ccccc3[nH]c12	0.8%	-1.5	-16.2	0.7	nt
O=C(OCC(=O)N1CCN(C(=O)c2ccco2)CC1)c1ccccc1O	11.5%	-1.9	nt	-13.9	-3.0
O=C(Nc1ccc(F)cc1)c1cccnc1NCCc1ccccc1	33.4%	-6.3	1.7	17.2	0.1
Nn1c(Cc2cccc3ccccc23)nnc1SCCOc1ccc(Br)cc1	10.0%	-19.3	10.4	27.4	-20.4
COc1cc(OC)c(C(=O)NCc2cccnc2)cc1OC	-1.5%	0.6	0.0	-0.9	nt
CC1CCN(C(=O)c2ccc(S(=O)(=O)Cc3cc(F)ccc3F)c([N+](=O)[O-])c2)CC1	7.7%	-6.5	-1.1	8.6	-24.1
CSc1nncn1/N=C/c1ccccc1F	-1.1%	-2.3	0.2	-1.3	20.8
Cc1nn(Cc2ccc([N+](=O)[O-])cc2)c(=O)n1-c1ccccc1Cl	0.4%	1.6	0.3	2.6	nt
Cn1c(=O)oc2cc(S(=O)(=O)N3CCCC(C(=O)Nc4nccs4)C3)ccc21 (configuration not stated)	nt	1.6	0.1	-4.5	-24.9
CC(OC(=O)c1cc(O)c2ccccc2c1O)C(=O)Nc1ccc(C(N)=O)cc1 (configuration not stated)	nt	nt	73.1*	-3.0	nt
CN1C(=O)Nc2cccc3cccc1c23	nt	nt	0.5	18.9	nt
COc1ccc(NC(=O)Nc2cnccn2)cc1OC	nt	nt	-3.1	-0.7	nt
COc1ccccc1NS(=O)(=O)c1cc(NC(=S)NCCN2CCOCC2)ccc1N1CCOCC1	0.2%	9.5	-0.2	1.1	-24.4
CC/C(=N\NC(=O)c1ccccc1)c1c(O)n(Cc2ccccc2)c(=O)[nH]c1=O	-9.2%	nt	1.3	20.6	nt
COc1ccc(C(C(=O)NC(C)(C)C)N(CC2CCCO2)C(=O)CCC(=O)Nc2cc(C)on2)cc1 (configuration not stated)	-8.9%	-5.3	-2.6	5.3	-12.6
Cc1cc(C)cc(NC(=S)/N=C(\N)Nc2nc(C)c3ccccc3n2)c1	nt	2.1	-0.1	8.9	-6.4
COc1cc(C2Nc3ccccc3NC3=C2C(=O)CC(C)(C)C3)cc(OC)c1OC (configuration not stated)	nt	nt	1.0	-4.7	nt
Next section:
SMILES	Mtb growth	Arbovirus anti	RecA splice inh	Mtb betalactam	YopH inh	others
CCOC(=O)N1CCC2(CC1)CC(=O)c1cc(O)ccc1O2	2.7%	5.1	0.1	-6.7	-34.0
COC(=O)c1ccccc1NC(=O)c1ccc(Cn2cc(Cl)cn2)o1	5.3%	-11.5	0.4	-3.0	-8.7
CC(=O)N(C)c1ccc(NC(=S)NCC(C)C)cc1	-8.8%	-2.6	0.9	-0.4	nt
Cc1ccc(Cc2nnc(SCC(=O)Nc3ccccc3C)[nH]c2=O)cc1	nt	nt	-2.7	2.6	nt
CC(C)Cc1ccc(S(=O)(=O)N2CCCC2)cc1	-3.8%	0.4	-0.3	-10.3	-12.6
CC(O)C(NS(=O)(=O)c1ccc(Cl)cc1)C(=O)OCc1nnc(-c2ccccc2)o1 (configuration not stated)	-2.0%	6.7	6.9	-5.7	-33.9
COc1ccc(S(=O)(=O)N2CC3CCCN3c3cc(C(F)(F)F)ccc32)cc1 (configuration not stated)	-3.4%	-13.3	nt	-2.5	-29.0
Cc1ccc(C)c(NC(=O)COC(=O)c2cccc(S(=O)(=O)N3CCCCC3)c2)c1	nt	nt	5.7	-6.0	nt
CCOC(=O)c1cnc(/N=C/N(C)C)s1	1.7%	2.6	-3.8	-5.5	nt
Nc1cnn(-c2ccccc2)c(=O)c1Cl	nt	nt	1.4	1.0	nt

Pulled one by one from the entries so far (3):
SMILES	Mtb growth	Arbovirus anti	RecA splice inh	Mtb betalactam	YopH inh	others
Cc1ccc(C)c(NC(=O)COC(=O)c2cccc(S(=O)(=O)N3CCCCC3)c2)c1	nt	nt	5.7	-6.0	nt
CCOC(=O)c1cnc(/N=C/N(C)C)s1	1.7%	2.6	-3.8	-5.5	nt
Cc1ccc(Cc2nnc(SCC(=O)Nc3ccccc3C)[nH]c2=O)cc1	nt	nt	-2.7	2.6	nt

Further entries:
SMILES	Mtb growth	Arbovirus anti	RecA splice inh	Mtb betalactam	YopH inh	others
COc1ccc(C(=O)CSc2nc3ncccc3[nH]2)cc1OC	-0.5%	nt	1.1	-5.6	nt
CCc1nnc(NC(=O)CSc2ccc(-c3ccco3)nn2)s1	nt	8.6	5.9	-6.2	nt
COc1ccc(N2C(=O)NC(=O)/C(=C\c3ccccc3[N+](=O)[O-])C2=O)cc1	-5.2%	-4.3	-0.3	-4.6	nt
NNC(=O)c1cc2c(s1)CCCCCC2	-0.8%	-23.5	1.1	8.8	-106.7
COc1ccc(OCC(=O)N2CCN(C/C=C/c3ccccc3)CC2)cc1	2.4%	5.1	0.4	-2.3	nt
CCc1c(C)c2ccc(OC(C)C(=O)NC(Cc3c[nH]c4ccc(O)cc34)C(=O)O)c(C)c2oc1=O (configuration not stated)	nt	nt	1.2	-10.7	nt
CC(C)C(OC(=O)c1cccs1)C(=O)NCc1cccs1 (configuration not stated)	-7.5%	5.7	3.3	-6.4	-27.2
CN(C)CCCSc1nc(-c2ccccc2)nc2c1CCC2	2.0%	-13.1	1.6	-11.9	-24.0
CCOC(=O)Cc1csc(NC(=O)C(NC(=O)C2CCC(C)CC2)C(C)C)n1 (configuration not stated)	nt	nt	0.1	7.1	nt
Cn1nnnc1SCC(=O)NC1CCCCC1	-0.4%	3.7	-1.3	-9.0	11.0

Gathered by group, the entries above with bromine.
SMILES	Mtb growth	Arbovirus anti	RecA splice inh	Mtb betalactam	YopH inh	others
O=C(COC(=O)c1ccccn1)c1cccc(Br)c1	nt	nt	-3.0	-1.9	nt
O=C(Nc1ccccc1-c1ccccc1)c1ccc(Br)o1	-5.7%	2.5	nt	4.8	-7.7
Nn1c(Cc2cccc3ccccc23)nnc1SCCOc1ccc(Br)cc1	10.0%	-19.3	10.4	27.4	-20.4

The results go on.
SMILES	Mtb growth	Arbovirus anti	RecA splice inh	Mtb betalactam	YopH inh	others
O=C(c1cc([N+](=O)[O-])ccc1Cl)N1CCN(Cc2ccc3c(c2)OCO3)CC1	8.5%	-3.8	-0.7	-4.9	nt
Cc1ccc(OCc2ccc(C(=O)Nc3nccs3)o2)cc1	-12.4%	3.5	-1.6	-0.4	-10.1
COc1ccc(C2(C)NC(=O)N(CC(=O)Nc3ccc(S(=O)(=O)N4CCCC4)cc3)C2=O)cc1 (configuration not stated)	2.7%	-0.5	3.7	-0.2	nt
CCSC1=C(C#N)C2(CCCCC2)C2=C(CC(C)(C)CC2=O)N1	-1.9%	0.6	-1.2	-3.3	nt
COc1cccc(C2C(C(=O)Nc3ccc(C)cc3C)=C(C)Nc3ncnn32)c1OC (configuration not stated)	-10.4%	7.1	-2.0	-2.1	-24.0
CCOC(=O)c1ccc(NC(=O)CSc2nc3c(c(=O)n2-c2ccccc2OC)SCC3)cc1	11.3%	5.0	2.7	1.4	nt	Arbovirus anti repeat=-7.6
COc1ccc(Cl)cc1N/C(N)=N/c1nc(C)cc(=O)[nH]1	-8.9%	-0.2	-0.9	-4.2	nt
Cc1ccc(N2CC(C(=O)OCc3ccc([N+](=O)[O-])cc3)CC2=O)cc1 (configuration not stated)	-2.8%	2.4	1.3	-5.2	-8.2
O=C(O)C(c1ccccc1)C(c1ccccc1)c1ccccc1 (configuration not stated)	-6.5%	1.2	0.5	5.8	nt
O=C(Nc1ccccc1Cl)c1ccc([N+](=O)[O-])o1	nt	nt	0.4	99.8	nt
Clc1cccc(Oc2ncccn2)c1	0.8%	2.9	0.1	-4.3	-2.8
O=C(CC1C(=O)NCCN1Cc1cccc(F)c1)NCCCCCN1CCOCC1 (configuration not stated)	nt	nt	0.6	-6.7	nt
O=C1CCCC(O)=C1N=Nc1ccc(Cl)c(Cl)c1	16.4%	9.6	0.8	-4.9	nt
CC(=O)Oc1ccccc1C(=O)NC(C)CCc1ccccc1 (configuration not stated)	nt	nt	9.5	2.1	nt
CCOc1cccc(CNCc2cccnc2)c1OCc1ccccc1	-0.7%	4.0	-0.5	4.2	nt
Cc1onc(-c2c(F)cccc2Cl)c1C(=O)NCc1cccs1	-3.4%	4.2	8.7	11.2	-12.4

High-throughput results: PubChem BioAssay, several laboratories
